Arbovirus anti = antivirals against arbovirus infection | arbovirus infection cell-based antiviral screen | inhibition, % at 10 µM | 0.37% of 200,000 active | AID 1251;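 active = inhibition from about 30%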;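 note: bluetongue infection of BSR cells; cell survival read as ATP light after 72 h; 0% = infected wells without compound and 100% = uninfected wells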
YopH PTP inh = YopH (Yersinia) phosphatase inhibition; fluorescence Ex485/Em525; inhibition, %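 (about 10 µM by stock and volumes)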; 0.16% of 140,000 active;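 active = inhibition of 50% or more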;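 note: controls were vehicle for no effect and minimum signal wells for full effect; inactives centre near -20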
Mtb betalactam = beta-lactam sensitization of Mtb H37Rv; 0.27% of 330,000 active; inhibition, % at 25 µM; AID 434955; M. tuberculosis H37Rv growth with meropenem, percent inhibition; hits of this screen are not shown here;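 active = about 74% or more and at least 40 points above the plate without the antibiotic, then above 30% in a dose series; inconclusive = first-round hits that could not be retested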;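 note: growth measured after seven days incubation then overnight dye step; 0% = bacteria only wells and 100% = bacteria with antibiotic; twin plates without the antibiotic show which effects depend on it; some results filed as inactive read as strong as hits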
Mtb H37Rv = M. tuberculosis H37Rv growth inhibitors, H37Rv strain (AID 1626); M. tuberculosis H37Rv growth inhibition; higher % means a stronger effect; inhibition, % at 10 µM, or IC50 in µM where a hit was titrated; 0.95% of 220,000 active;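 active = confirmed in a dose series; inconclusive = inhibition above 80% but not taken into the dose series; inactive = below 80% or under 30% at every dose of the series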;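 note: bacteria incubated seven days before Alamar blue readout; 0% = bacteria only wells and 100% = bacteria with antibiotic wells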
RecA intein inh = blocks M. tuberculosis RecA intein splicing; inhibition, %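 (about 9 µM by stock and volumes)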; 0.75% of 290,000 active; cell-free RecA intein splicing, fluorescence; AID 2221; in the data active = inhibition above about 30%; inconclusive = no clear call, values can overlap the other calls;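 note: 0% = vehicle wells and 100% = reference inhibitor control wells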
Target sequence (P9WHJ3 whole entry, looked up): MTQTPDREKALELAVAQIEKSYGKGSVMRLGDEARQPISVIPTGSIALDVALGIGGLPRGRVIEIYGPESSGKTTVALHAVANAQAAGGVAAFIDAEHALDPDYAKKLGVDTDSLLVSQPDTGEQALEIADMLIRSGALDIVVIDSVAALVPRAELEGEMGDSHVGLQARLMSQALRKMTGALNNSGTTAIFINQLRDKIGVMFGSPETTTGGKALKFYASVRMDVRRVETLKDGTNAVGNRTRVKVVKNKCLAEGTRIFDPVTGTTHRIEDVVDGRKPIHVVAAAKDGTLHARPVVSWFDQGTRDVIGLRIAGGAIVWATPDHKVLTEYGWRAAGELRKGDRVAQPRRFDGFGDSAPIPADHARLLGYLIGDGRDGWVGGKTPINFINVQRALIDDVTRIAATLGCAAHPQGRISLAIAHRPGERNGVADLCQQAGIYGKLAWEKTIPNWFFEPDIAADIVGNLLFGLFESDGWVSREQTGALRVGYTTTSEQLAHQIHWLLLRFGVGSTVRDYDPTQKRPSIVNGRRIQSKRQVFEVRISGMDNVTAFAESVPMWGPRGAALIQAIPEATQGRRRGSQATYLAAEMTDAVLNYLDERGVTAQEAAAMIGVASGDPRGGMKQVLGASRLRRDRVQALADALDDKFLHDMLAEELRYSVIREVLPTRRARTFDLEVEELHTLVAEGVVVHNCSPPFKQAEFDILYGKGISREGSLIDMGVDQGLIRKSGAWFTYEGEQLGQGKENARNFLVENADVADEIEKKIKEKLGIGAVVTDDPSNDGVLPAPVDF
Arbovirus anti repeat = second read-out of Arbovirus anti, no call of its own (marks repeat the call); inhibition, %; measured here: 10K subset replicate screen; many hits read low in the repeat;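 first of two repeat runs on a subset; 0% = infected and 100% = uninfected wells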
An asterisk follows results filed as active. This is a subset; count on the stated rates, not on these rows.

Results for N=c1c(-c2nc3ccccc3[nH]2)cc(C(=O)c2cccs2)nn1-c1ccccc1 ?
Arbovirus anti: -26; YopH PTP inh: 18; Mtb betalactam: -6; Mtb H37Rv: 8%; RecA intein inh: -0.8

What do the screens show for `CCOc1ccc(S(=O)(=O)NCCC(=O)N(C)CC(=O)Nc2ccc(N3CCOCC3)cc2)cc1`?
Mtb betalactam: -6; RecA intein inh: -2.7

How did COc1ccc(N2C(=O)C3ON(C4SC(=S)N(C)C4(C)C)C(c4ccc(Cl)cc4)C3C2=O)cc1 (configuration not stated) do in these assays?
Arbovirus anti: 3; YopH PTP inh: -10; Mtb betalactam: 23; Mtb H37Rv: 6%; RecA intein inh: -0.1

What do the screens show for `CS(=O)(=O)c1ccc2nc(NC(=O)c3ccccc3Br)sc2c1`?
Mtb betalactam: -1; RecA intein inh: 0.3

Results for O=C(NC1CCOc2ccccc21)c1ccc(Cl)nc1 (configuration not stated) ?
Mtb betalactam: 0; RecA intein inh: 0.2

How did NC1=NC(c2ccc(Cl)cc2)N(c2ccc(S(N)(=O)=O)cc2)C(N)=N1 (configuration not stated) do in these assays?
Mtb betalactam: -14; Mtb H37Rv: -8%; RecA intein inh: 1.6

What do the screens show for `CCC(O)(C#CCN1CCCCC1)CC`?
Arbovirus anti: 1; YopH PTP inh: -31; Mtb betalactam: -1; Mtb H37Rv: -1%; RecA intein inh: -3.8

What do the screens show for `CN(C)CCCN(C(=O)c1ccco1)c1nc2c(F)cccc2s1`?
Arbovirus anti: 6; Mtb betalactam: -10; Mtb H37Rv: -2%; RecA intein inh: -3.5

How did Cc1ccc(-n2nc3c(c2NC(=O)c2ccc(F)c(F)c2)CS(=O)(=O)C3)cc1 do in these assays?
Mtb betalactam: inconclusive; RecA intein inh: 0.3

Results for COc1ccc(C)cc1NC(=O)COC(C)=O ?
Arbovirus anti: -4; YopH PTP inh: -23; Mtb betalactam: -5; Mtb H37Rv: -11%; RecA intein inh: -5.3

What do the screens show for `COCCn1c(-c2cc(OC)c(OC)c(OC)c2)nc2oc3ccccc3c(=O)c2c1=O`?
Mtb betalactam: -7; Mtb H37Rv: -8%; RecA intein inh: -2.5

How did CCOC(=O)C1CCCN(C(=O)c2ccccc2[N+](=O)[O-])C1 (configuration not stated) do in these assays?
Arbovirus anti: 9; Mtb betalactam: -12; Mtb H37Rv: -8%; RecA intein inh: 4.5

Results for COc1ccc(C)cc1NC(=O)CCS(=O)(=O)c1cc2c(cc1Cl)NC(=O)CO2 ?
Mtb betalactam: -4; RecA intein inh: 1.3

What do the screens show for `Cc1ccn(S(=O)(=O)c2ccc3oc(=O)ccc3c2)n1`?
Mtb betalactam: -9; RecA intein inh: -0.9

What do the screens show for `CCN1CCN(S(=O)(=O)c2ccc(S(=O)(=O)NC3CC3)cc2)CC1`?
Mtb betalactam: -2; RecA intein inh: -4.4

Results for COc1ccc(N(CC(=O)N/N=C/c2ccco2)S(=O)(=O)c2ccccc2)cc1Cl ?
Mtb betalactam: -7; Mtb H37Rv: -15%; RecA intein inh: 2.3

Results for COC(=O)c1ccc(N2CCN(C)CC2)c(NC(=O)COc2cccc(C)c2)c1 ?
Mtb betalactam: -3; RecA intein inh: -0.4

What do the screens show for `COc1ccc(OCC(N)=O)cc1`?
Arbovirus anti: 2; Mtb betalactam: 4; Mtb H37Rv: -1%; RecA intein inh: -1.2

What do the screens show for `COc1ccccc1N1CCN(S(=O)(=O)c2ccc3c(c2)NC(=O)C(C)S3)CC1` (configuration not stated)?
Mtb betalactam: -6; RecA intein inh: 10

How did COc1cccc(-c2cc(C(=O)N3CCOCC3)no2)c1 do in these assays?
Mtb betalactam: 7; RecA intein inh: -4.4

How did CN(CC(=O)Nc1ccccc1Br)C(=O)CCC1CCCC1 do in these assays?
Mtb betalactam: -3; RecA intein inh: 1.9

What do the screens show for `COc1ccc(CNCC(=O)Nc2cc(C)nn2-c2nc(C)cc(C)n2)cc1OC`?
Mtb betalactam: -4; Mtb H37Rv: 4%; RecA intein inh: -2.2

What do the screens show for `C/C(=N\NC(=O)c1cc(-c2cccc(OC(C)C)c2)nc2ccccc12)c1cccnc1`?
Mtb betalactam: 10; RecA intein inh: 4.5

What do the screens show for `CC(=O)NCc1cn2c(C)csc2n1`?
Arbovirus anti: 4; YopH PTP inh: -29; Mtb betalactam: -3; Mtb H37Rv: 1%; RecA intein inh: 0.0; Arbovirus anti repeat: -1

Results for CCC1CCc2c(n(C)c3ccccc3c2=O)O1 (configuration not stated) ?
Arbovirus anti: -4; YopH PTP inh: 5; Mtb betalactam: 6; Mtb H37Rv: -6%; RecA intein inh: 1.8

What do the screens show for `CN1CCCC2(CCCN(Cc3nc(Cc4cccc(C(F)(F)F)c4)no3)C2)C1` (configuration not stated)?
Arbovirus anti: -12; Mtb betalactam: -5; Mtb H37Rv: -3%; RecA intein inh: 0.8

How did CC(=O)Oc1ccc2c(C)cc(=O)[nH]c2c1 do in these assays?
Arbovirus anti: 2; YopH PTP inh: -55; Mtb betalactam: 73; Mtb H37Rv: 74%; RecA intein inh: 8.8

What do the screens show for `CCOCCCn1c(=S)[nH]c2cc(C(=O)N3CCC(C(N)=O)(N4CCCCC4)CC3)ccc2c1=O`?
Arbovirus anti: 1; Mtb betalactam: 3; Mtb H37Rv: 7%; RecA intein inh: 0.8

What do the screens show for `COc1ccc(S(=O)(=O)n2[nH]c(=O)c(CCO)c2C)cc1`?
Mtb betalactam: -12; RecA intein inh: -1.3

What do the screens show for `COc1ccccc1N1CCN(C2CCCN(C(=O)CCc3c(C)noc3C)C2)CC1` (configuration not stated)?
Mtb betalactam: 7; RecA intein inh: 0.5

How did CCOc1cc(/C=N/NC(=O)c2cc(-c3ccccc3)nc3ccccc23)ccc1O do in these assays?
Mtb betalactam: 5; RecA intein inh: -3.8

How did Nc1ccc2c(c1)oc1ccccc12 do in these assays?
Arbovirus anti: -5; YopH PTP inh: -30; Mtb betalactam: 100; Mtb H37Rv: 2µM*; RecA intein inh: 4.1

What do the screens show for `O=C(COC(=O)CNC(=O)c1ccccc1F)Nc1nnc(-c2ccccc2)o1`?
Mtb betalactam: 1; RecA intein inh: 1.7

What do the screens show for `Cc1nc(N2CCCC2C(=O)O)c2oc3ccccc3c2n1` (configuration not stated)?
Arbovirus anti: -1; YopH PTP inh: -28; Mtb betalactam: -8; Mtb H37Rv: -18%; RecA intein inh: -2.1

Results for CCN(CC)c1ccc(-c2nnc(SCC(=O)N(CCOC)c3c(N)n(CC(C)C)c(=O)[nH]c3=O)o2)cc1 ?
Mtb betalactam: -5; RecA intein inh: 0.5

How did CN1CCOC(=O)/C1=N/Nc1cc(Cl)ccc1Cl do in these assays?
Arbovirus anti: -24; Mtb betalactam: 95; Mtb H37Rv: 94%; RecA intein inh: -4.4

What do the screens show for `Cc1cccc2c(CCNC(=O)c3ccc([N+](=O)[O-])cc3)c[nH]c12`?
Arbovirus anti: -10; YopH PTP inh: -25; Mtb betalactam: 6; Mtb H37Rv: 10%; RecA intein inh: -1.6

Results for CN(C1CCCCC1)S(=O)(=O)CCNC(=O)c1ccccc1 ?
Mtb betalactam: -4; RecA intein inh: -0.2

How did O=C(c1cc(-c2cccs2)on1)N1CCN(c2ccc(F)cc2)CC1 do in these assays?
Arbovirus anti: -15; YopH PTP inh: -25; Mtb betalactam: 7; Mtb H37Rv: 3%; RecA intein inh: -1.0

What do the screens show for `COc1ccccc1NC(=O)c1sc2ncn(Cc3cccc(C)c3)c(=O)c2c1C`?
Arbovirus anti: -4; YopH PTP inh: -25; Mtb betalactam: 2; Mtb H37Rv: -3%; RecA intein inh: -3.6

What do the screens show for `CCc1noc(C)c1C(=O)Nc1cc(S(=O)(=O)N2CCCCC2)ccc1N(C)C`?
Mtb betalactam: -10; RecA intein inh: 0.3

Results for COCCn1c(SCC(=O)Nc2nc3ccccc3s2)nnc1-c1ccoc1C ?
Arbovirus anti: 4; YopH PTP inh: 7; Mtb betalactam: 13; Mtb H37Rv: 4%; RecA intein inh: 2.3

How did NS(=O)(=O)c1cccc(NC(=S)NC(=O)C23CC4CC(CC(C4)C2)C3)c1 do in these assays?
Arbovirus anti: 26; YopH PTP inh: -34; Mtb betalactam: 1; Mtb H37Rv: 4%; RecA intein inh: 6.0

Results for N/C(CCS(=O)(=O)c1ccc(Cl)cc1)=N\OC(=O)c1ccc(Cl)cc1 ?
Mtb betalactam: 0; Mtb H37Rv: 0%; RecA intein inh: 0.4

How did CC1=NN(c2ccccc2)C(=O)C1=C(C)C do in these assays?
Arbovirus anti: -1; Mtb betalactam: -1; Mtb H37Rv: 5%; RecA intein inh: 55*

Results for Cc1cc(C(=O)Nc2ccc(C)c(S(=O)(=O)N3CCOCC3)c2)c(C)o1 ?
Arbovirus anti: 20; Mtb betalactam: -2; Mtb H37Rv: 4%; RecA intein inh: 2.3

Results for COc1ccc(NC(=O)c2cccc3c(Br)cccc23)cc1 ?
Mtb betalactam: 51; RecA intein inh: -0.8

What do the screens show for `COC(=O)C1=C(C)N(C)C(C)=C(C(=O)OC)C1c1ccncc1`?
Arbovirus anti: -5; YopH PTP inh: -2; Mtb betalactam: -1; Mtb H37Rv: -7%; RecA intein inh: -0.1

What do the screens show for `CSc1c2c(nc3ncnn13)CCC2`?
Arbovirus anti: 2; YopH PTP inh: -13; Mtb betalactam: -1; Mtb H37Rv: -5%; RecA intein inh: 2.6

What do the screens show for `O=c1cc(O)nc(SCc2ccccc2Cl)[nH]1`?
Arbovirus anti: 4; YopH PTP inh: -38; Mtb betalactam: -13; Mtb H37Rv: -3%; RecA intein inh: 4.1

What do the screens show for `Cc1cc(Br)ccc1N1C(=O)CC(=O)NC1=O`?
Arbovirus anti: 11; YopH PTP inh: -17; Mtb betalactam: 2; Mtb H37Rv: 0%; RecA intein inh: 4.2; Arbovirus anti repeat: 2

How did CCCCCCCCSc1nnc(/N=C/N(C)C)s1 do in these assays?
Mtb betalactam: -1; Mtb H37Rv: -10%; RecA intein inh: 0.3

How did COc1ccc(-c2n(-c3ccccn3)c3ccccc3[n+]2-c2ccccn2)cc1 do in these assays?
Mtb H37Rv: 15%; RecA intein inh: 1.5

How did CCn1c(SCC(=O)N2CCN(c3cccc(Cl)c3)CC2)nc2ccccc2c1=O do in these assays?
Arbovirus anti: 14; YopH PTP inh: 13; Mtb betalactam: 14; Mtb H37Rv: -1%; RecA intein inh: 1.3

What do the screens show for `COc1ccc(NC(=O)C(=O)NCC2CCCN2S(=O)(=O)c2cc(C)ccc2C)cc1` (configuration not stated)?
Mtb betalactam: -7; RecA intein inh: -1.2

Results for CC(=O)c1ccc(S(=O)(=O)N(Cc2cc3cc4c(cc3[nH]c2=O)OCCO4)CC2CCCO2)cc1 (configuration not stated) ?
Arbovirus anti: -5; YopH PTP inh: -46; Mtb betalactam: 0; Mtb H37Rv: -3%; RecA intein inh: 2.3

What do the screens show for `CCC(C)c1ccc(NC(=S)N2CCN(C(=O)C3CCCO3)CC2)cc1` (configuration not stated)?
Mtb betalactam: -8; RecA intein inh: -2.6

What do the screens show for `CC(C)c1cc(C(=O)Nc2cccc(Cl)c2)no1`?
Arbovirus anti: -5; YopH PTP inh: 4; Mtb betalactam: 83; Mtb H37Rv: 70%; RecA intein inh: 4.2

Results for CCOC(=O)C(C)(C)Sc1nc2c(cnn2-c2ccc(F)cc2)c(=O)[nH]1 ?
Mtb betalactam: 7; RecA intein inh: 7.8

How did COc1cccc(N/C(N)=N/c2nc(C(F)(F)F)cc(C(F)(F)F)n2)c1 do in these assays?
Arbovirus anti: 3; Mtb betalactam: -2; Mtb H37Rv: -8%; RecA intein inh: -1.3

Among those listed so far, these have a CF3 group.
What do the screens show for `CN1CCCC2(CCCN(Cc3nc(Cc4cccc(C(F)(F)F)c4)no3)C2)C1` (configuration not stated)?
Arbovirus anti: -12; Mtb betalactam: -5; Mtb H37Rv: -3%; RecA intein inh: 0.8

How did COc1cccc(N/C(N)=N/c2nc(C(F)(F)F)cc(C(F)(F)F)n2)c1 do in these assays?
Arbovirus anti: 3; Mtb betalactam: -2; Mtb H37Rv: -8%; RecA intein inh: -1.3

Structures above with a thiophene ring, fused or not, in the order listed:
Results for N=c1c(-c2nc3ccccc3[nH]2)cc(C(=O)c2cccs2)nn1-c1ccccc1 ?
Arbovirus anti: -26; YopH PTP inh: 18; Mtb betalactam: -6; Mtb H37Rv: 8%; RecA intein inh: -0.8

How did O=C(c1cc(-c2cccs2)on1)N1CCN(c2ccc(F)cc2)CC1 do in these assays?
Arbovirus anti: -15; YopH PTP inh: -25; Mtb betalactam: 7; Mtb H37Rv: 3%; RecA intein inh: -1.0

What do the screens show for `COc1ccccc1NC(=O)c1sc2ncn(Cc3cccc(C)c3)c(=O)c2c1C`?
Arbovirus anti: -4; YopH PTP inh: -25; Mtb betalactam: 2; Mtb H37Rv: -3%; RecA intein inh: -3.6

Bioassay records (PubChem)
